# NPYLR7 agonist = agonists of mosquito NPYLR7 receptor, primary screen, cell-based, Aedes aegypti, calcium fluorescence, mosquito biting behavior | HEK293T NPYLR7/Galpha15, GCaMP6s calcium fluorescence | activation, % at 10 µM | actives 0.15% (n = 270,000); in the data active means activation above about 40%;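 further: 0% = vehicle and 100% = reference agonist at the receptor; some compounds past the cut are filed as inactive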
# NPYLR7 agonist max-min = recorded beside NPYLR7 agonist, whose call it bears; activation, %; measured here: Max-Min RFU normalised activation; some inactives read as strong as hits;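 span of the calcium signal over five minutes; 0% = vehicle and 100% = native peptide agonist; compound fluorescence can raise it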
# * marks the source's active call; other numbers are inactive results; & = joins results of further samples. This is a subset. The share of hits here may be higher or lower than overall.
# The first six records (preview)
# Values run as follows: NPYLR7 agonist max-min	NPYLR7 agonist
> Clc1cnc(Oc2ccc(Br)cc2)c(Cl)c1
 : 1	2
> CCOC(=O)c1cc(C#N)c(SCC(=O)NC(C)COC)nc1C (stereo not given)
 : 1	5
> COc1ccc(C2=NN(C(=O)CCC(=O)O)C(c3ccc(Br)cc3)C2)cc1 (stereo not given)
 : -20	-11
> CC(=NN=C(N)N)c1ccc(-n2ccnc2)cc1
 : 4	10
> Cc1ccc(Nc2nc(NCc3ccc4c(c3)OCO4)nc3nccnc23)cc1
 : 5	2
> COc1ccc(NC(=O)c2sccc2N(C)S(=O)(=O)c2ccccc2)cc1Cl
 : 11	7

# The list itself, repeating the preview:
# Values run as follows: NPYLR7 agonist max-min	NPYLR7 agonist
> Clc1cnc(Oc2ccc(Br)cc2)c(Cl)c1
 : 1	2
> CCOC(=O)c1cc(C#N)c(SCC(=O)NC(C)COC)nc1C (stereo not given)
 : 1	5
> COc1ccc(C2=NN(C(=O)CCC(=O)O)C(c3ccc(Br)cc3)C2)cc1 (stereo not given)
 : -20	-11
> CC(=NN=C(N)N)c1ccc(-n2ccnc2)cc1
 : 4	10
> Cc1ccc(Nc2nc(NCc3ccc4c(c3)OCO4)nc3nccnc23)cc1
 : 5	2
> COc1ccc(NC(=O)c2sccc2N(C)S(=O)(=O)c2ccccc2)cc1Cl
 : 11	7
> CCn1cc(C(CC(=O)N(CCN(C)C)Cc2ccccc2)c2cccc(C)c2)c2ccccc21 (stereo not given)
 : 12	4
> Nc1ncccc1CN1CCCC1c1ccc(F)cc1 (stereo not given)
 : -5	-3
> Cc1cc(Nc2cc(CN3CCOCC3)c3nc(C)c(Cc4ccc(Cl)cc4F)n3n2)n[nH]1
 : -10	-4
> COCCN(Cc1cccs1)C(=O)c1cc2ccccn2n1
 : -2	2
> CN1CCc2nc3sc(C(=O)NCCc4ccccc4)c(N)c3cc2C1
 : 14	26
> CCN(CC)c1cc(=O)n2c(n1)SCCC2
 : -4	-3
> Cc1nc(C)c(Cc2ccccc2Cl)c(N2CCN(C(=O)COc3ccccc3)CC2)n1
 : 7	3
> O=C(CN1CCN(c2cnccn2)CC1)Nc1nnc(-c2ccccc2)o1
 : 4	5
> CN1CCCC(C)(C(=O)Nc2cccc3c2CCCC3)C1 (stereo not given)
 : -1	0
> CCCNC(=O)c1cc(-c2cccs2)nc2c1c(C)nn2C1CCS(=O)(=O)C1 (stereo not given)
 : 5	2
> COC(=O)Nc1nc2ccc(Sc3ccccc3)cc2[nH]1
 : -11&-7	-6&-5
> C=CCn1c(SCC(=O)N2CCOCC2)nnc1-c1ccccc1F
 : 9	-3
> O=C(Nc1cnc2n1CCCC2)C1CCOC1 (stereo not given)
 : 11	24
> c1nc(N2CCCCCC2)c2cn[nH]c2n1
 : 10	12
> Cc1sc2ncnc(N/N=C\c3ccncc3)c2c1C
 : 13	12
> CCOc1ccccc1C(=O)Nc1cc(-c2ccc(Cl)cc2)nn1-c1ccc(OC)cc1
 : 25	22
> CCCCOc1ccc(S(=O)(=O)Nc2ccccc2C(=O)Nc2cc(C)cc(C)c2)cc1
 : -8	-1
> NO
 : 5	-6
> CC(C)c1noc(C(C)S(=O)(=O)c2ccc(O)cc2)n1 (stereo not given)
 : 4&2	5&5
> CCN(CC)S(=O)(=O)c1ccc(CN2C(=O)C3(CC(=O)N(CC(=O)N(C)C)C3=O)c3cc(OC)ccc32)cc1 (stereo not given)
 : -13	-10
> CCC(Sc1nc(C)cc(C)n1)C(=O)Nc1nnc(C)s1 (stereo not given)
 : 1	0
> Cc1nc(-c2ccccn2)sc1C(=O)NCCN1CCCC(C)C1 (stereo not given)
 : 3	2
> Cc1nc2c(c(N(C)C)n1)CCN(C(=O)c1ccc(C#CC(C)(C)O)cc1)C2
 : 3	6
> COc1ccccc1OCc1nc(CN(C(=O)c2ccc(Cl)cc2)C2CC2)cs1
 : -1	-11
> COc1cc2c(cc1OC)[C@@H](c1ccccc1)CN(C)CC2
 : -13	1
> CNC(=O)Cn1nc(C2CC2)c2cnn(-c3ccccc3)c2c1=O
 : -2	-1
> CC(OC(=O)c1ccc(Cl)c(S(C)(=O)=O)c1)C(=O)c1ccc2c(c1)CCC2 (stereo not given)
 : 5	7
> Cc1cc(C)c(NC(=O)CN2CCCC2c2ccc3c(c2)OCCCO3)c(Cl)c1 (stereo not given)
 : 0	-3
> COc1ccc(NC(=O)NCCCn2nc(-c3ccco3)ccc2=O)c(OC)c1
 : 2	2
> COc1ccccc1CN(CCc1c[nH]c2ccccc12)C(=O)CN(Cc1ccc(F)cc1)C(=O)CC(C)(C)C
 : 20	13
> CN1C(C(=O)N2CCCCC2)=CC(c2cccs2)=NS1(=O)=O
 : -3	2
> Cc1ccccc1C(=O)N1C(C(=O)O)COC12CCN(C(=O)c1ccc(Cl)cc1)CC2 (stereo not given)
 : 19	9
> Fc1ccc(Br)cc1C=C(Cl)c1nnc(-c2cccs2)o1
 : 5	11
> Cc1cc(C)n(CC(C)NCc2n[nH]c3c2CCCCC3)n1 (stereo not given)
 : 0	2
> CCOC(=O)C1(Cc2ccccc2)CCN(Cc2ccc(N3CCNC3=O)cc2)CC1
 : 11	16
> Cc1cccc(C(=O)NCC2(O)CCC2)c1O
 : 3	3
> CCCCS(=O)(=O)N1C[C@@H]2CN(C(=O)C3CC3)C[C@]2(C(=O)O)C1
 : 19	3
> N#Cc1c(NC(=O)c2ccc([N+](=O)[O-])cc2Cl)sc2c1CCCC2
 : 5	5
> COc1ccc(Cn2ncc(Cl)c(Cl)c2=O)cc1F
 : 2	4
> Cc1ccccc1-c1nc2ccc(Cl)cn2c1NC1CCCCC1
 : 2&12	3&14
> COCCN(Cc1ccc(OS(C)(=O)=O)cc1)C(=O)Nc1cccc(Cl)c1
 : 1	-4
> COc1cccc(C(=O)N2CCN(c3cc(Oc4ccccc4C)ncn3)CC2C)c1 (stereo not given)
 : -5	-10
> CC(=O)C(C)n1c(=O)c2c(nc3n(-c4cc(C)cc(C)c4)c(C)c(C)n23)n(C)c1=O (stereo not given)
 : 9	0
> COCCCN(CC(=O)N(CCc1c[nH]c2ccccc12)Cc1ccc(C(F)(F)F)cc1)C(=O)C(C)Cl (stereo not given)
 : 11	4
> N#CCOc1cccc(CNC(=O)C2SCCc3sccc32)c1 (stereo not given)
 : 1	0
> COC(=O)C1=C(C)NC(C)=C(C(=O)OC(C)C)C1c1cccc2nonc12 (stereo not given)
 : -9&-11	-3&2
> CCOC(=O)C1=C(C)N=c2s/c(=C\c3ccc(C(C)C)cc3)c(=O)n2C1c1ccc(N(C)C)cc1 (stereo not given)
 : -24	-14
> O=C(Nc1ccc(N2CCCC2=O)c(F)c1)c1ccncc1
 : -4	-4
> O=C(C#Cc1ccccc1)NC1CCCN(C2CCCCCC2)C1 (stereo not given)
 : -8	-4
> CN(Cc1cnn(C)c1)C1CCCC1S(C)(=O)=O (stereo not given)
 : -5	-1
> CCOC(=O)NNC(=O)C(CCSC)NS(=O)(=O)c1ccccc1 (stereo not given)
 : 0	-1
> Clc1ccc(Cc2nc(CSc3ccccc3Cl)cs2)cc1Cl
 : 6	3
> Cn1nc(N2CCN(C(=O)c3ccco3)CC2)c(=O)n(C)c1=O
 : 2	8
> O=C(c1ccc2nc(Cc3ccccc3F)oc2c1)N1CCN2CCCC2C1 (stereo not given)
 : 2	3

# A second format for some results above.
compound	NPYLR7 agonist max-min	NPYLR7 agonist
COCCCN(CC(=O)N(CCc1c[nH]c2ccccc12)Cc1ccc(C(F)(F)F)cc1)C(=O)C(C)Cl (stereo not given)	11	4
CCOC(=O)NNC(=O)C(CCSC)NS(=O)(=O)c1ccccc1 (stereo not given)	0	-1
O=C(c1ccc2nc(Cc3ccccc3F)oc2c1)N1CCN2CCCC2C1 (stereo not given)	2	3

# (listing goes on)
# Values run as follows: NPYLR7 agonist max-min	NPYLR7 agonist
> O=S1(=O)CCC(CNc2nc(-c3ccncc3)nc3c2CNC3)C1 (stereo not given)
 : -2	7
> Cc1ncc2c(c1CNC(=O)Cc1ccsc1)CCN(C(=O)/C=C/c1cccc(F)c1F)C2
 : 13	10
> CC(C)=CCSc1nnc2nc3[nH]c4ccccc4c3nn12
 : 18	23
> O=C(NNc1ncnc2c1cnn2-c1ccc(F)cc1)c1cccc([N+](=O)[O-])c1
 : 0	0
> CCC(C)(C)NC(=O)c1ccc(CSc2ccc3ccccc3n2)cc1
 : -3	10
> COC(=O)C1=C(C)NC(C)=C(C(=O)OC)C1C1=COCCO1
 : -1	-1
> O=c1[nH]c(SCc2nnc(-c3cccs3)o2)nc2scc(-c3cccs3)c12
 : 12	7
> CCC(CC)C(=O)N(C)c1c(C)nc2ccc(C(=O)N3CCN(c4ccccc4)CC3)cn12
 : 5	11
> CCCC(=O)N(Cc1ccccn1)c1nc2c(OC)ccc(OC)c2s1
 : -5	2
> O=C(CCCN1CCC2(CC1)c1ccccc1CC2O)c1ccc(F)cc1 (stereo not given)
 : 4	2
> c1ccc(-n2cccc2CNC2CCCN(c3ncccn3)C2)nc1 (stereo not given)
 : 0	5
> Cc1nn(CC(C)C)c(Cl)c1C(=O)NC(C)C1CCCO1 (stereo not given)
 : 0	0
> CN(C)C(=O)N1CCCC(C(=O)NC2CCCC[C@H]2N(Cc2ccc(Cl)cc2)C(=O)c2ccccc2)C1 (stereo not given in full)
 : 11	15
> CC1CN(c2cc(Cl)nc(SCC(=O)NCCc3ccccc3)n2)CCN1C(=O)c1ccccc1Cl (stereo not given)
 : -8	-3
> Cc1ccc(S(=O)(=O)N2CCN(c3ccc(Cl)cc3C)C(=O)C2C)cc1 (stereo not given)
 : 7	2
> N#Cc1cccc(CN2CCN3C(C(=O)Nc4ccc(Oc5ccccc5)cc4)=COC3=NC2=O)c1
 : -3	-4
> O=C1C2C3C=CC(CC3)C2C(=O)N1/N=C\c1cc([N+](=O)[O-])c(O)cc1O (stereo not given)
 : -14	-10
> Cc1cc[n+](-c2nc3ccccc3nc2C(C#N)C#N)cc1
 : 5	9
> CCOc1cc2c(c([N+](=O)[O-])c1)NC(C(C)C)C1CC=CC21 (stereo not given)
 : 9	2
> O=C(/C=C/c1ccc(F)cc1)NCC(=O)Nc1ccccc1Br
 : 8	6
> CCOC(=O)Cn1c(=O)c2c(nc3n2CC(C)CN3c2cccc(Cl)c2C)n(C)c1=O (stereo not given)
 : 6	7
> COc1ccc(CNC(=O)Cn2nc([N+](=O)[O-])cc2C)cc1
 : -8	-6
> CC(C)c1nnc(SCC(N)=O)c2c1cnn2-c1ccccc1
 : -18	-12
> Cc1ccccc1N1C(=O)CSC1c1ccc(NC(=O)c2ccc([N+](=O)[O-])cc2Cl)cc1 (stereo not given)
 : 12	5
> COc1ccc(-n2nc(-c3ccccc3Cl)cc2C(=O)O)cc1
 : 19	12
> CCc1cc(N(C)CCO)nc(N2CCCCC2)n1
 : -9	-8
> C=CCCC(O)(CCC=C)c1ccc(CN(Cc2ccsc2)CC2CCCO2)o1 (stereo not given)
 : -3	-11
> CC(C)CN1CCCC(CNC(=O)C2(N)CCCC2)C1 (stereo not given)
 : -2	2
> COC(=O)C(C)C(NC(=O)c1cnc(C)cn1)c1ccccc1 (stereo not given)
 : -14	-14
> COc1cccc(-c2cc(C(=O)NCCN3CCCC3)n3nc(C(C)(C)C)cc3n2)c1
 : 19	19
> COc1cc2c(cc1OC)C1CN(C(=O)c3c(F)c(F)cc(F)c3F)CC(=O)N1CC2 (stereo not given)
 : -3	-2
> Fc1ccc(F)c(C2=NNC(=Nc3ccccc3F)SC2)c1
 : -17	-16
> O=c1[nH]nc(C2CCN(c3ncnc4[nH]ccc34)CC2)n1Cc1ccccc1
 : -1	5
> C=CCOC(=O)C1C(C)=Nc2nc(SCCCC)[nH]c(=O)c2C1c1cccs1 (stereo not given)
 : -6	-4
> CS(=O)(=O)c1ccccc1NC1CCN(C2CCCC2)C1 (stereo not given)
 : 1&-1	2&-3
> CC(Cc1ccc(Cl)cc1)NC(=O)C1CC1(c1ccccc1)c1ccccc1 (stereo not given)
 : -11	-6
> c1ccc(Oc2cccc(-c3ccc4nnc(-c5cccnc5)n4c3)c2)cc1
 : -2	6
> COC(=O)c1cc(C)nc(N(C)C)c1C(=O)OC
 : -4	-4
> Cc1ccc(C)c(OCCNC(=O)[C@@H]2CCCCN2)c1
 : -6	-3
> Cc1ccc(C(=O)Cn2nc(C)c(C)c(C#N)c2=O)s1
 : 13	7
> Cc1ccc(C2SCCN2S(=O)(=O)c2ccc(C)cc2)cc1 (stereo not given)
 : 1	6
> COc1ccc(-c2nc(C=CC(=O)N3CCOCC3)cs2)cc1
 : 3	6
> CCCc1nnc(NC(=O)c2oc3cc(C)c(C)cc3c2C)s1
 : 2	9
> CCOc1ccc(Cl)cc1/C=N\n1cn[nH]c1=S
 : -1	0
> CC(NC(=O)Cc1cccc2ccccc12)C(=O)Nc1cccc(C(=O)NC2CC2)c1 (stereo not given)
 : 3	6
> c1ccc2sc(NCC3(N4CCOCC4)CCSC3)nc2c1 (stereo not given)
 : -4	0
> Cc1ccnc(N=Cc2nc(/C=C/c3cccc([N+](=O)[O-])c3)oc2O)c1
 : 12	8
> c1ccc2sc(CSc3ncnc4sc5c(c34)CCC5)nc2c1
 : 2	2
> C1=CCC(CN2CCN(c3nc(-c4ccccc4)nc4c3CCC4)CC2)CC1 (stereo not given)
 : -2&10	-1&18
> c1ccc([C@@H]2C[C@@H]3C[C@H](N4CCN(Cc5ccccn5)CC4)C[C@@H]3CO2)cc1
 : 5	1
> CC(=O)c1cccc(NC(=O)c2cn(C)c3c(=O)n(-c4ccc(Cl)cc4)c(=O)[nH]c23)c1
 : 1	1
> O=C(CCN1C(=O)c2ccccc2C1=O)N1CCCCC1
 : -11	-5
> Nc1nc2cc(C(=O)N3C[C@@H]4C5CCC(CC5)[C@@H]4C3)ccc2s1
 : 1	6
> CC(=O)Nc1ccc(S(=O)(=O)Nc2ccc3n(c2=O)C[C@H]2C[C@@H]3CN(Cc3ccc(F)cc3)C2)cc1
 : -19	-8
> Cc1oc(-c2ccc(Cl)cc2)nc1CN1CCOCC1
 : 2	-2
> CNC(=O)CCN(C)Cc1ccc(CO)o1
 : 9	13
> CC(C)OC(=O)Nc1ccc2c(c1)N(C(=O)CNCCO)c1ccccc1CC2
 : 1	1
